Bioassay records as filed in PubChem BioAssay.
Cruzain inh Det = cruzain (T. cruzi) inhibition with detergent. Potency, µM, inactives show max response, negative = inhibition, hits mostly inhibitors. actives 0.43% (n = 200,000). P25779. purified cruzain, Z-FR-AMC fluorescence, 0.01% Triton. AID 1478;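 also: plate controls were neutral wells for no effect and buffer without enzyme for full effect; nearly all actives have a fitted effect of over 40% in size; top concentration of the series not given in the record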
Target sequence (P25779 123-467 limits assumed): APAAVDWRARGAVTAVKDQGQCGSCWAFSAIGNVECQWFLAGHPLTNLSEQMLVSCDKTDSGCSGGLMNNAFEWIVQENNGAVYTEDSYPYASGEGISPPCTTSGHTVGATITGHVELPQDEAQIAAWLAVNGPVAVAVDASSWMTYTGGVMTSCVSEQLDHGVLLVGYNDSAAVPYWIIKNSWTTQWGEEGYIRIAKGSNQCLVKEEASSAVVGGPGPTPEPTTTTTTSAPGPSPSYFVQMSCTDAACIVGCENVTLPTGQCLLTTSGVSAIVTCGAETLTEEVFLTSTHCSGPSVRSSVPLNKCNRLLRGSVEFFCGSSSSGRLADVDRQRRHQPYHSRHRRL
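Read-out: AMC fluorescence (360 nm excitation, 450 nm emission), four reads over 2 min, first-to-third difference used. Conditions: cruzain 1.5 nM, Z-FR-AMC 2 uM, pH 5.5 acetate, 5 mM DTT, 0.01% Triton X-100.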
MARV entry inh = inhibitors of Marburg virus binding or cell entry; AID 540276; Marburg virus pseudotyped entry inhibition, cell reporter; control for the full effect not named in the record; about a third of the inactives were read at about 46 µM; actives 1.8% (n = 300,000); Potency, µM (doses to about 37.8 µM), inactives show at the highest dose activity change, negative = inhibition, usual class: inhibitors; active = well fitted inhibition curve with a large enough effect; inconclusive = small, poorly fitted or top-dose-only effect, or effect the other way; inactive = flat fitted curve, though single readings scatter; tested in HEK293 cells; about a fifth of its hits are not listed in these tables; also: % is scaled to controls: 0 for no effect and ±100 for the full control effect; luciferase read-out
SARS PLP yeast = blocks SARS-CoV papain-like protease in a yeast assay; S. cerevisiae expressing SARS-CoV PLpro, growth rescue; control for the full effect not named in the record; Potency, µM (titrated, usually from 32.9 µM), without a hit: at the highest dose activity, positive = growth rescue; actives 0.19% (n = 330,000); active means well fitted rising curve with a large enough effect; inconclusive means small, poorly fitted or top-dose-only effect; inactive means no such curve, though single readings can be large or run the other way; also: 0% is about no effect; nearly all actives have a fitted effect of over 55% in size; growth read by luminescence after 48 h
Cruzain noTriton = inhibitors of Trypanosoma cruzi cruzain without detergent; actives 2.3% (n = 200,000); Potency, µM, inactives show max response, negative = inhibition, usual class: inhibitors; P25779; AID 1476; purified cruzain, Z-FR-AMC fluorescence, no detergent;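 also: plate controls were enzyme without inhibitor for no effect and buffer without enzyme for full effect; nearly all actives have a fitted effect of over 40% in size; top concentration of the series not given in the record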
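Purified cruzain at 1.5 nM, pre-incubated 15 min with compound at room temperature in 100 mM sodium acetate pH 5.5, 5 mM DTT, 0.00005% Triton X-100. Reaction started with 2 uM Z-FR-AMC; AMC fluorescence increase over 60 s gives rate.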
StopGo reporter = FMDV 2A StopGo reporter, luciferase signal; Potency, µM (doses to about 57.9 µM), inactives show top-dose signal change, negative = less light; human cells with a luciferase reporter of 2A StopGo recoding; control for the full effect not named in the record; AID 1159524; actives 1.2% (n = 410,000); active = well fitted falling curve with a large enough effect; inconclusive = small, poorly fitted or top-dose-only effect; inactive = no such curve, though single readings can be large or run the other way; tested in HEK293T cells; also: % is scaled to controls: 0 for no effect and ±100 for the full control effect; nearly all actives have a fitted effect of over 45% in size; luciferase light after 4 h
Lassa entry inh = blocks Lassa virus binding to or entry into cells. Lassa virus pseudotype entry inhibition, cell reporter; control for the full effect not named in the record. Potency, µM (titrated, usually from 37.9 µM), for inactives: top-dose activity change, negative = inhibition, hits mostly inhibitors. actives 1.2% (n = 300,000). AID 540256; active means well fitted inhibition curve with a large enough effect; inconclusive means small, poorly fitted or top-dose-only effect, or effect the other way; inactive means flat fitted curve, though single readings scatter; tested in HEK293 cells; also: % is scaled to controls: 0 for no effect and ±100 for the full control effect; nearly all actives have a fitted effect of over 50% in size; luciferase read-out
NS1 function inh = influenza NS1 inhibition | actives 0.4% (n = 270,000) | Potency, µM (top dose mostly 46.1 µM), for inactives: at the highest dose activity, positive = more growth | S. cerevisiae slowed by influenza A NS1, growth recovery by OD600 | AID 2326; active means well fitted rising curve with a large enough effect; inconclusive means small, poorly fitted or top-dose-only effect; inactive means no such curve, though single readings can be large or run the other way; also: nearly all actives have a fitted effect of over 50% in size
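OD600 was taken as the measure of yeast growth restored by compound in an NS1-expressing S. cerevisiae strain. Cells had been washed out of glucose medium and diluted 1:100 into galactose -URA medium, pH 6.0.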
RE007 growth inh = less growth of the S. pombe RE007 Vpr strain; AID 651644; Potency, µM (top dose mostly 92.2 µM), without a hit: at the highest dose activity change, negative = less growth; actives 0.21% (n = 360,000); S. pombe RE007 Vpr strain, BacTiter-Glo ATP luminescence, 24 h; control for the full effect not named in the record; active = well fitted falling curve with a large enough effect; inconclusive = small, poorly fitted or top-dose-only effect; inactive = no such curve, though single readings can be large or run the other way;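 also: % is scaled to controls: 0 for no effect and ±100 for the full control effect; nearly all actives have a fitted effect of over 50% in size; the assay follows cell death caused by Vpr and the record does not say whether a fall means rescue or toxicity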
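Fission yeast strain RE007, carrying one chromosomally integrated HIV-1 vpr copy, was seeded at OD 0.01 in PMG+AL medium with 23 nL pinned compound. After 24 h at 30 °C and 99% humidity, viability was read by BacTiter-Glo luminescence.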
Starred values were filed as active, the others as inactive; ? = inconclusive; / = no result given; & = joins results of further samples; [ ] = another dose, or the depositor's remark. Unless noted, calls follow the shape of the dose curve; as a rule, active = well fitted curve in the direction sought with a large enough effect; inconclusive = small, poorly fitted or top-dose-only effect, or another doubt; inactive = no such curve, though single readings can be large; an effect the other way counts as inactive or inconclusive. Potency is read from the fitted curve at half-maximal effect.

Values run as follows: RE007 growth inh | MARV entry inh | Lassa entry inh | Cruzain inh Det | NS1 function inh | SARS PLP yeast | StopGo reporter | Cruzain noTriton
O=C(NCCc1nc2ccccc2n1Cc1ccccc1)c1ccco1
→ / | -14%[46.1 µM] | 1%[46.1 µM] | 0.3% | / | / | 0% | -1%
O=C1CC(c2ccccc2)Sc2nc3ccccc3n21 (stereo not drawn)
→ -9% | ? | -26% | / | / | -11% | -3% | /
Cc1ccc(C(=O)Nc2nnc(NC(=S)Nc3ccccc3)s2)cc1
→ -3% | ? | 4% | / | 3% | 0% | 20% | /
COc1cc(Cl)c(S(=O)(=O)NCCCN2CCOCC2)cc1Cl
→ -13% | 1% | -5% | -4.5% | 1% | -4% | 5% | 2%
CCCCOc1ccc(/C=c2\sc3ncnn3c2=O)cc1
→ -1% | 19%[46.1 µM] | 0% | -1.9% | 3% | -2% | -12% | 11%
C=CCc1c(OC)ccc2c1c(S(=O)(=O)c1ccc(C)cc1)cn2COC
→ -27% | -14%[46.1 µM] | ? | / | 1% | -3% | 46%[activator] | /
CN(C)c1ccc(C(=O)C(O)c2ccccc2Cl)cc1 (stereo not drawn)
→ 21% | ? | 6%[46.1 µM] | / | / | / | ? | /
CC(CN1CCCC1)OC(=O)c1ccc(F)cc1 (stereo not drawn)
→ -4% | ? | -4% | / | 19% | 1% | -13% | /
O=C(CN1CCN(S(=O)(=O)c2ccc(Br)cc2)CC1)N/N=C/c1ccco1
→ -7% | ? | -3% | -1.9% | 10% | 26% | -20% | 10%
c1cncc(CNc2ncn[nH]2)c1
→ 0% | / | / | -0.8% | -8%&0% | 0% | -3% | 0%
Cc1cc2n(n1)C(c1ccsc1)Nc1ccccc1-2 (stereo not drawn)
→ ? | 5% | 0% | -3.0% | -121% | -13% | -1% | -5%
Cn1ncc(Cl)c1C(=O)NC1C2CC3CC(C2)CC1C3 (stereo not drawn)
→ -2% | / | / | / | -2% | 0% | -21% | /
COc1ccc(-c2[nH]ncc2/C=N\NC(=O)c2ccc(C(C)(C)C)cc2)cc1OC
→ 4% | ? | -4% | -9.3% | 12% | 9% | 17% | ?
CCCNC(=O)Cn1c(=O)oc2cc(S(=O)(=O)N3CC(C)CC(C)C3)ccc21 (stereo not drawn)
→ -13% | / | / | / | -6% | 7% | 3% | /
CCc1cccc(NS(=O)(=O)c2ccc(-n3cccn3)cc2)c1
→ 1% | / | -3%[46.1 µM] | -13% | -10% | -5% | 13%&25% | -14%
COc1cc(S(=O)(=O)n2ccc(C)n2)ccc1Cl
→ 1% | -2%[46.1 µM] | 16%[46.1 µM] | / | 7% | -2% | -22% | /
O=c1[nH]c(=S)n(Cc2ccc(F)cc2)c(O)c1C=NCc1cccnc1
→ 5% | 0% | -14% | -2.9% | 10% | -1% | -21% | -2%
Cc1nnc(NCCN2CCOCC2)[nH]c1=O
→ ? | 13% | 13% | 4.6% | 4% | 0% | -9% | 3%
COc1ccc(/C=C(/C#N)C(=O)Nc2cccc(C)c2C)cc1C(=O)O
→ 22% | -11% | 11% | 5.2% | 11% | 6% | -8% | 7%
CCOC(=O)C1CCCN(C(=O)Cc2c(C(=O)O)[nH]c3ccccc23)C1 (stereo not drawn)
→ 0% | 26% | -4% | 0.3% | 3% | 13% | -4% | 13%
Cc1nc2ccccc2c(=O)n1NC(=O)COc1ccccc1
→ 14% | -3% | 18% | 2.8% | -2% | 0% | -10% | 14%
Cc1ccc(C)c(NC(=O)CN(C)C(=O)c2ccccc2Cc2ccccc2)c1
→ -15% | -29% | ? | / | / | 4% | -28% | /
CN1C(=O)c2ccccc2Sc2ccc(NC(=O)NCc3cccc(Cl)c3)cc21
→ / | ? | -23%[46.1 µM] | -7.6% | / | / | ? | ?
O=C(c1ccccc1)N1CCC(c2nc3ccccc3o2)CC1
→ / | -1%[46.1 µM] | 2%[46.1 µM] | 1.9% | / | / | 15% | 20%
CCN(CC)C(=O)CSc1nc2ncccc2[nH]1
→ 0% | 5% | 6% | 0.5% | 1% | 5% | -7% | 11%
CCCCCCc1ccc(N2C[C@H](Cc3ccccc3)[C@@H](CC(=O)Nc3ccccc3)C2=O)cc1
→ 9% | / | / | / | ? | -1% | 16% | /
Cc1c(NC(=O)c2cnn3cccnc23)c(=O)n(-c2ccccc2)n1C
→ -16% | -18% | 1% | -1.2% | 10% | -1% | 12% | -7%
CC(C)C(=O)Nc1ccc2c(c1)nc(CCN1CCN(c3ccccc3)CC1)n2C
→ 16% | / | / | / | -2% | 1% | -14% | /
Cc1cccc(C(=O)Nc2sc(C(=O)N3CCCC3)c(C)c2C#N)c1
→ -9% | -14% | 3% | -1.2% | -5% | 0% | 19% | -11%
CC(=O)Nc1ccc(NC(=O)c2oc3cc(C)c(C)cc3c2C)cc1
→ 11% | / | / | -1.8% | -9% | 1% | -6% | -7%
COc1ccccc1-c1c(C(F)(F)F)oc2cc(OC(=O)c3ccc([N+](=O)[O-])cc3)ccc2c1=O
→ 4% | 20%&8% | 29% | -7.7% | -23% | -34% | ? | -27%
COc1ccc(Cl)cc1NC(=O)CSc1nccn1-c1ccc(Cl)cc1
→ / | / | -27%[46.1 µM] | -2.0% | / | / | ? | -2%
C1CCCN(c2nc3nonc3nc2N2CCCCCC2)CC1
→ -29% | 1%[46.1 µM] | 29% | / | / | 2% | -23% | /
CCOc1ccccc1NC(=O)NCc1noc2ccc(C)cc12
→ / | / | -5%[46.1 µM] | -6.2% | / | / | -1% | 10%
CCN(CC)C(=S)Nc1ccc(OC)cc1
→ -1% | 9% | 4% | -2.8% | 10% | 25% | -3% | 1%
COc1ccc(N(C(=O)c2snc(C(N)=O)c2N)C(C(=O)NC2CCCCC2)c2ccc(C)o2)cc1 (stereo not drawn)
→ 3% | ? | ? | / | 12% | 0% | -15% | /
CCNC(=O)N1CCCC(C(=O)c2ccc3cc(OC)ccc3c2)C1 (stereo not drawn)
→ -7% | 5%[46.1 µM] | -3% | / | -6% | -3% | 5% | /
CC(C)c1ccc(C(C(=O)NC(C)(C)C)N(C(=O)CNC(=O)c2ccco2)c2cccnc2)cc1 (stereo not drawn)
→ -1% | -7% | -21% | -1.3% | -2% | -3% | -2% | ?
COc1cc(OC)c2c(O)c3c(c(-c4c5c(c(O)c6c(OC)cc(OC)cc46)CO[C@@H](C)[C@H]5O)c2c1)[C@H](O)[C@H](C)OC3
→ 22% | / | / | / | 1% | 0% | -2% | /
O=S(=O)(NCc1ccccc1Cl)c1cccs1
→ -3% | -11%[46.1 µM] | 10% | / | / | 4% | 62%[activator] | /
Cc1ccc(CCNC(=O)CCn2nc(-c3ccccc3)ccc2=O)cc1
→ / | / | -22%[46.1 µM] | 0.1% | / | / | -22% | -6%
COc1cc(Br)c(C(C)NC(=O)c2ccc(C)cc2)cc1OC (stereo not drawn)
→ -15% | -16% | -12% | 0.6% | -23% | 0% | ? | 5%
O=C(N/N=C/c1c(O)n(-c2ccccc2Cl)c(=O)c2ccccc12)c1cccnc1
→ 8% | 8%[46.1 µM] | 1%[46.1 µM] | / | / | 5.6µM* | 14% | /
Cc1ccc2nc(-c3ccccn3)oc2c1
→ ? | ? | ? | -3.8% | -14% | -7% | 1% | 19%
CCN(CC)c1ccc2nc3ccccc3[n+](CC)c2c1
→ 2.8µM* | ? | ? | / | 3% | -15% | 7.9µM* | /

One compound at a time, as listed above. Order of screens: RE007 growth inh	MARV entry inh	Lassa entry inh	Cruzain inh Det	NS1 function inh	SARS PLP yeast	StopGo reporter	Cruzain noTriton
`Cc1ccc(C(=O)Nc2nnc(NC(=S)Nc3ccccc3)s2)cc1` is listed with -3%	?	4%	/	3%	0%	20%	/
`COc1cc(Cl)c(S(=O)(=O)NCCCN2CCOCC2)cc1Cl` is listed with -13%	1%	-5%	-4.5%	1%	-4%	5%	2%

Next section:
Values run as follows: RE007 growth inh | MARV entry inh | Lassa entry inh | Cruzain inh Det | NS1 function inh | SARS PLP yeast | StopGo reporter | Cruzain noTriton
NC(=O)CC(NC(=O)Cc1ccc(Br)cc1)c1ccc(NC2CCN(Cc3ccccc3)CC2)c([N+](=O)[O-])c1 (stereo not drawn)
→ -22% | / | / | / | -10% | -3% | 9% | /
CCOC(=O)C(C(=O)NCc1cccc(OC)c1)c1ncc(C(F)(F)F)cc1Cl (stereo not drawn)
→ 9% | 1% | 0% | 1.5% | -2% | 0% | -5% | -6%
COc1ccc(C)cc1NC(=O)c1nn(-c2ccccc2)cc1OC
→ 8% | ? | ? | / | -23% | -15% | ? | /
CC1CCN(C(=O)CN(Cc2ccc(F)cc2)S(C)(=O)=O)CC1
→ -7% | -2%[46.1 µM] | 15%[46.1 µM] | / | 2% | 1% | -3% | /
C/C(=N\O)C(=O)NCCCNCCCN(C)C
→ 4% | 5%[46.1 µM] | 1% | 0.7% | 7% | / | -6% | 3%
CCCN(CCC)[C@H]1CCc2c(F)ccc(O)c2C1
→ / | 11µM* | 17% | -3.1% | -2% | / | / | 8%
CCOc1ccccc1NC(=O)Cn1c(-c2ccc(Cl)cc2)noc1=O
→ -6% | / | / | / | -62% | 5% | -19% | /

Another view of some results above:
smiles | RE007 growth inh | MARV entry inh | Lassa entry inh | Cruzain inh Det | NS1 function inh | SARS PLP yeast | StopGo reporter | Cruzain noTriton
CCCN(CCC)[C@H]1CCc2c(F)ccc(O)c2C1 | / | 11µM* | 17% | -3.1% | -2% | / | / | 8%
COc1ccc(C)cc1NC(=O)c1nn(-c2ccccc2)cc1OC | 8% | ? | ? | / | -23% | -15% | ? | /
NC(=O)CC(NC(=O)Cc1ccc(Br)cc1)c1ccc(NC2CCN(Cc3ccccc3)CC2)c([N+](=O)[O-])c1 (stereo not drawn) | -22% | / | / | / | -10% | -3% | 9% | /
C/C(=N\O)C(=O)NCCCNCCCN(C)C | 4% | 5%[46.1 µM] | 1% | 0.7% | 7% | / | -6% | 3%
